PINK1 modulator – A Quantitative High throughput Screen to Identify Chemical Modulators of PINK1 Expression; PINK1 immunofluorescence, high-content cytometry, 24 h; Potency, µM (titrated, usually from 76.6 µM), for inactives: at the top dose activation (PINK1 increase), most hits filed as activators; 0.2% of 410,000 active; AID 624263, 2012; active = well fitted activation curve with a large enough effect; inconclusive = small, poorly fitted or top-dose-only effect; inactive = flat fitted curve, though single readings scatter; cell line not stated here;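 further: potency means the concentration at half of the fitted maximal effect; % of control where 0% means no effect; nearly all actives have a fitted effect of over 65% in size; a mitochondrial uncoupler was the plate control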
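Decision-based qHTS: stable cells, 24 h exposure to five compound concentrations, CCCP as control. Fixed cells stained for PINK1 plus nuclear, mitochondrial and cell markers, cytometer read.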
Sfp inh – qHTS Assay for Inhibitors of Bacillus subtilis Sfp phosphopantetheinyl transferase (PPTase). Potency, µM, for inactives: max response, negative = inhibition, actives largely listed as inhibitors. 3.5% of 310,000 active. Biochemical Sfp PPTase activity, qHTS. AID 1490, 2009; active means well fitted inhibition curve with a large enough effect; inconclusive means small, poorly fitted or top-dose-only effect, or another doubt; inactive means no such curve, though single readings can be large or run the other way;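 further: the enzyme is Sfp with the accession as filed and its product quenches rhodamine fluorescence; potency means the concentration at half of the fitted maximal effect; 0% = enzyme reaction without inhibitor and -100% = no enzyme wells; top concentration of the series not given in the record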
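After 15 min at room temperature with compound, 15 nM Sfp received 5 uM rhodamine-CoA plus 12.5 uM BHQ-2-ybbR (50 mM Hepes pH 7.6, 10 mM MgCl2). Rate came from the fluorescence difference over 30 min, ex 525/em 598 nm.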
D2 agonist – Beta-Arrestin HTS for Positive Allosteric Modulators of the Human D2 Dopamine Receptor: Agonists | D(2) dopamine receptor (Homo sapiens), P14416 | activation, % (test concentration not listed) | DiscoveRx PathHunter D2 beta-arrestin, luminescence, 90 min; 100% = 57 uM dopamine signal | AID 624465, 2012 | 0.084% of 360,000 active; in the data active = activation above about 40%; inconclusive = about 15% to 40%; inactive = below about 15%; further: compound concentration not given in the record; the text of the record calls up to 30% inactive
Target sequence (P14416 whole entry, looked up): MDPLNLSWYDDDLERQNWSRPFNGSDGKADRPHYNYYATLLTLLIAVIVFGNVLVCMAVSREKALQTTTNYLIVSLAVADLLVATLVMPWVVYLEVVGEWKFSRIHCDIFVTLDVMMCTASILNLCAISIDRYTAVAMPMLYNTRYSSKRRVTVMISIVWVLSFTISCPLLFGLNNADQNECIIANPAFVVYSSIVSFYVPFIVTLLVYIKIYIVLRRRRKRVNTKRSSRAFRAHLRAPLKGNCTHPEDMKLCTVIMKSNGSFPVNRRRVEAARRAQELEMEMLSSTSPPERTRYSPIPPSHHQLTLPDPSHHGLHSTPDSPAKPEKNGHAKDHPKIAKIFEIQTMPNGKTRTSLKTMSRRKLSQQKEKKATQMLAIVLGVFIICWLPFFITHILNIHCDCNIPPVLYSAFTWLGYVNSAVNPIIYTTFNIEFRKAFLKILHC
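DiscoveRx PathHunter D2 beta-arrestin cells (2,100/well) attached overnight, then compound-stimulated 90 min at 37 C in HBSS/10 mM HEPES/0.1% Tween-20 buffer; beta-galactosidase complementation read by luminescence after 1 h at ambient temperature. Dopamine 57 uM final (EC100) as control.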
TRPV1 PAM – HTS Assay for Compounds that Act as Potentiators of the Vanilloid Receptor 1. 0.02% of 320,000 active. Transient receptor potential cation channel subfamily V member 1 (Homo sapiens), Q8NER1. AID 540277, 2011. potentiation, % at 8.33 µM. TRPV1-expressing cells, Fluo-8 calcium influx, capsaicin EC20 potentiation; host cell line not named in the record; control for the full effect not named in the record; active means potentiation above 80%; inconclusive means 30% to 80%; inactive means below 30%; further: 0% is about no effect
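Fluo-8 calcium influx in TRPV1-expressing cells, kinetic read (ex 480/em 520 nm). Compound added and read 3 min for agonist activity, followed by capsaicin at EC20 final and 2 min further read for enhancement.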
CtBP-E1A inh – qHTS Assay for Inhibitors of the CtBP/E1A Interaction; CtBP / adenovirus E1A interaction (AlphaScreen); AlphaScreen GST-E1A/His-CtBP binding, 1536-well; active compounds read low; control for the full effect not named in the record; activity change, % (test concentration not listed); 0.49% of 340,000 active; AID 651724, 2012; in the data active means activity change below about -65%; inconclusive means about -30% to -65%; inactive means above about -30%; further: on the % scale 0 is the no-effect control and ±100 the full control effect
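AlphaScreen with 125 nM GST-E1A and 125 nM His-CtBP (5X stocks) in Tris pH 8.0, 300 mM NaCl, BSA, Tween 20, TCEP. Compounds preincubated 2 h at 37 deg C, then glutathione donor/nickel acceptor beads added for 1 h at 37 deg C in dark.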
Six1-Eya2 blk – qHTS Assay for Inhibitors of the Six1/Eya2 Interaction. activity change, % (test concentration not listed). AlphaScreen GST-Six1/His-Eya2 binding, biochemical; active compounds read low; control for the full effect not named in the record. Homeobox protein SIX1 (Homo sapiens) + Protein phosphatase EYA2 (Homo sapiens), …. 0.56% of 360,000 active; in the data active = activity change below about -65%; inconclusive = about -30% to -65%; inactive = above about -30%; further: on the % scale 0 is the no-effect control and ±100 the full control effect
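AlphaScreen with GST-Six1 and His-Eya2 (5X mix: 250 nM and 500 nM), glutathione donor and nickel acceptor beads; buffer 50 mM Tris pH 8.0, 300 mM NaCl, 1 mM TCEP; 1 h at 37 C in the dark.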
D2 PAM – Beta-Arrestin HTS for Positive Allosteric Modulators of the Human D2 Dopamine Receptor: Potentiators | DiscoveRx D2 beta-arrestin cells, luminescence, 90 min; 100% = 57 uM dopamine signal | potentiation, % (test concentration not listed) | 0.23% of 360,000 active; active = potentiation of 50% or more; inconclusive = 30% to 50%; inactive = 30% or less;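 further: compound concentration not given in the record; tested on top of an EC20 dose of dopamine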
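PathHunter D2 cells, attached overnight at 37 deg C, received compound in DMSO plus dopamine at EC20 (50 nM final) for 90 min at 37 deg C. Beta-arrestin recruitment was read as luminescence after 1 h with detection reagent at ambient temperature.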
The depositor's hits bear a star; [ ] = dose if it differs, or a comment. The order is random. About 3.7% of those tested had a hit in this group.

For Cc1cc(NS(=O)(=O)c2ccc(NC(=O)c3ccccc3F)cc2)no1 the results were PINK1 modulator -1.9%, D2 agonist -5.2, CtBP-E1A inh -13, Six1-Eya2 blk 0 and D2 PAM -4.
CCCN(CC(=O)Nc1cc(Cl)ccc1Cl)C(=O)c1ccccn1 was read as PINK1 modulator -0.1%, D2 agonist -0.9, CtBP-E1A inh 10, Six1-Eya2 blk 8 and D2 PAM -3.
`CC1CC(=O)Nc2ccccc2N1C(=O)Cn1cnc2ccc(Br)cc2c1=O` (stereo not drawn) gave PINK1 modulator -0.9%, D2 agonist -8.1, TRPV1 PAM 3, CtBP-E1A inh -1, Six1-Eya2 blk 5 and D2 PAM -1.
Screening O=C(Nc1ccc(Cl)cc1)c1ccc(OCC2CCCO2)cc1 (stereo not drawn) returned PINK1 modulator 0.1%, Sfp inh 9%, D2 agonist -0.6, TRPV1 PAM 5, CtBP-E1A inh 6, Six1-Eya2 blk 0 and D2 PAM -5.
`Cc1ccc(OCC(=O)OCC(=O)NC2CCCC2)cc1C` gave PINK1 modulator 0.8%, D2 agonist 3.7, TRPV1 PAM 18, CtBP-E1A inh -1, Six1-Eya2 blk 1 and D2 PAM 0.
Cn1cc(C(=O)c2cccc(Cl)c2Cl)cc1C#N was read as PINK1 modulator -0.4%, Sfp inh -3%, D2 agonist -23, TRPV1 PAM 12, CtBP-E1A inh 1, Six1-Eya2 blk 15 and D2 PAM -1.
`CC(=O)NC(Cc1ccccc1)C(=O)NC1CCN(C(=O)NCc2ccccc2)CC1` (stereo not drawn) gave PINK1 modulator 0.6%, Sfp inh 11%, D2 agonist -2.7, TRPV1 PAM 6, CtBP-E1A inh 0, Six1-Eya2 blk 16 and D2 PAM -9.
`CCC[C@@H](CN1CCC[C@H]1CN1C(N)=NC[C@@H]1Cc1ccccc1)N1C[C@@H]([C@H](C)CC)N(CCc2ccc(Cl)c(Cl)c2)C1=N` gave PINK1 modulator 0.3%, D2 agonist -5.2, CtBP-E1A inh -13, Six1-Eya2 blk 1 and D2 PAM -33.
`O=C(N/N=C/c1cccnc1)c1cc2c(ccc3ccccc32)o1` gave PINK1 modulator 2.4%, Sfp inh -6%, D2 agonist 5.5, TRPV1 PAM -15, CtBP-E1A inh -12, Six1-Eya2 blk -11 and D2 PAM 25.
`COc1ccc(S(=O)(=O)N2CCCC(C(=O)N3CCN(c4ccccc4)CC3)C2)cc1Cl` (stereo not drawn) gave PINK1 modulator 2.8%, Sfp inh 2%, D2 agonist 1.3, TRPV1 PAM -10, CtBP-E1A inh -16, Six1-Eya2 blk -18 and D2 PAM 2.
Screening COc1cccc(-c2cc(C(F)(F)F)nc(-n3cc(Cl)cn3)n2)c1 returned PINK1 modulator -3.3%, Sfp inh inconclusive, D2 agonist -8.1, TRPV1 PAM -5, CtBP-E1A inh 1, Six1-Eya2 blk 18 and D2 PAM -7.
Screening CC(C)(C)c1ccc(NC(=O)CNC2CCCc3ccccc32)cc1 (stereo not drawn) returned PINK1 modulator -1.2%, Sfp inh -9%, D2 agonist -0.4, TRPV1 PAM -11, CtBP-E1A inh -8, Six1-Eya2 blk 13 and D2 PAM -9.
C#CC(=O)CCC1CCCN1C(=O)OC(C)(C)C (stereo not drawn) was read as PINK1 modulator 11%, D2 agonist -0.5, CtBP-E1A inh 5, Six1-Eya2 blk 4 and D2 PAM -3.
Screening O=C(c1ccc(Cl)cc1)N1CCCCC(Sc2nnc(-c3ccc4c(c3)OCO4)o2)C1=O (stereo not drawn) returned PINK1 modulator -1.8%, Sfp inh 10%, D2 agonist -2.9, TRPV1 PAM 6, CtBP-E1A inh 1, Six1-Eya2 blk 0 and D2 PAM 2.
C/C(=N\NC(=O)c1nnn(-c2nonc2N)c1CN(C)c1ccccc1)c1cccc(O)c1 was read as PINK1 modulator 1.2%, Sfp inh 12%, D2 agonist 1.4, TRPV1 PAM -9, CtBP-E1A inh -6, Six1-Eya2 blk -3 and D2 PAM -4.
Screening CC(=O)c1ccc(S(=O)(=O)N2CCN(C(=O)C3CCCC3)CC2)cc1 returned PINK1 modulator -0.5%, Sfp inh 17%, D2 agonist -0.1, TRPV1 PAM 5, CtBP-E1A inh -10, Six1-Eya2 blk 12 and D2 PAM -8.
`Cc1ccccc1NS(=O)(=O)c1nnc(NC(=O)c2ccccc2F)s1` gave PINK1 modulator 0.0%, Sfp inh 15%, D2 agonist -5.9, TRPV1 PAM -3, CtBP-E1A inh 7, Six1-Eya2 blk 0 and D2 PAM -6.
CCOc1ccc(NC(=O)CN(C)C(=O)c2ccccc2SCC(=O)N2CCCC2)cc1OCC was read as PINK1 modulator inconclusive, D2 agonist -0.9, TRPV1 PAM 2, CtBP-E1A inh -20, Six1-Eya2 blk 0 and D2 PAM 5.
For O=C(O)c1ccc2c(c1)[C@@H]1C=CC[C@@H]1[C@H](c1ccccn1)N2 the results were PINK1 modulator 0.4%, D2 agonist 4.4, CtBP-E1A inh -16, Six1-Eya2 blk -77* and D2 PAM 25.
Screening Cc1ccc(C(=O)c2cc3ccccc3o2)cc1[N+](=O)[O-] returned PINK1 modulator 4.1%, Sfp inh 0%, D2 agonist -0.2, TRPV1 PAM -12, CtBP-E1A inh 0, Six1-Eya2 blk -7 and D2 PAM -4.
Screening COCCNC(=O)CN1CCC(NC(=O)c2ccco2)CC1 returned PINK1 modulator 0.2%, Sfp inh 9%, D2 agonist -7.2, TRPV1 PAM 13, CtBP-E1A inh -22, Six1-Eya2 blk -5 and D2 PAM -7.
CC1CCN(c2oc(-c3ccccc3F)nc2C#N)CC1 was read as PINK1 modulator -1.3%, Sfp inh -17%, D2 agonist 0.3, TRPV1 PAM 3, CtBP-E1A inh -19, Six1-Eya2 blk -29 and D2 PAM -1.
For COc1ccc(C(=O)OCC(=O)c2ccc[nH]2)c(OC)c1 the results were PINK1 modulator 3.1%, D2 agonist -0.1, CtBP-E1A inh 1, Six1-Eya2 blk 2 and D2 PAM -2.
Screening O=C(CSc1nc2ccsc2c(=O)n1CC1CCC(C(=O)O)CC1)c1ccc(Cl)cc1 (stereo not drawn) returned PINK1 modulator 1.0%, Sfp inh -17%, D2 agonist -2.0, TRPV1 PAM -5, CtBP-E1A inh 13, Six1-Eya2 blk -27 and D2 PAM -7.

The closing two records of the section before open the next one.
For COc1ccc(C(=O)OCC(=O)c2ccc[nH]2)c(OC)c1 the results were PINK1 modulator 3.1%, D2 agonist -0.1, CtBP-E1A inh 1, Six1-Eya2 blk 2 and D2 PAM -2.
Screening O=C(CSc1nc2ccsc2c(=O)n1CC1CCC(C(=O)O)CC1)c1ccc(Cl)cc1 (stereo not drawn) returned PINK1 modulator 1.0%, Sfp inh -17%, D2 agonist -2.0, TRPV1 PAM -5, CtBP-E1A inh 13, Six1-Eya2 blk -27 and D2 PAM -7.
For CCn1c(SCC(=O)Nc2ccccc2F)nnc1-c1ccoc1C the results were PINK1 modulator 2.2%, Sfp inh 14%, D2 agonist -3.2, TRPV1 PAM 1, CtBP-E1A inh -2, Six1-Eya2 blk 3 and D2 PAM -2.
`OCC1CCCCN1C(=S)NCc1ccco1` (stereo not drawn) gave PINK1 modulator 1.7%, Sfp inh 50µM*, D2 agonist 0.1, TRPV1 PAM -1, Six1-Eya2 blk 0 and D2 PAM inconclusive.
Cc1c(C(=O)N2CCC2(C)C(=O)O)oc2ccccc12 (stereo not drawn) was read as PINK1 modulator 0.6%, D2 agonist -4.6, CtBP-E1A inh 2, Six1-Eya2 blk 3 and D2 PAM -6.
For COc1ccc(C(=O)COC(=O)C(CCSC)NC(=O)COc2ccccc2)cc1 (stereo not drawn) the results were PINK1 modulator 3.9%, D2 agonist 1.5, TRPV1 PAM 5, CtBP-E1A inh -2, Six1-Eya2 blk -11 and D2 PAM 4.
Screening CCCCNC(=O)CN1C(=O)C(CC)Oc2ccc(Cl)cc21 (stereo not drawn) returned PINK1 modulator inconclusive, Sfp inh 0%, D2 agonist 0.7, TRPV1 PAM -5, CtBP-E1A inh 0, Six1-Eya2 blk 4 and D2 PAM -13.
Screening COc1ccc(C(=O)Oc2ccc[nH]c2=O)cc1 returned PINK1 modulator 0.1%, Sfp inh 6%, D2 agonist -2.3, TRPV1 PAM 26, Six1-Eya2 blk 12 and D2 PAM -17.
For CC(C)(C)OC(=O)NCCc1nnc(SCc2cccc(Cl)c2)o1 the results were PINK1 modulator 1.7%, Sfp inh 2%, D2 agonist -1.8, TRPV1 PAM -32, CtBP-E1A inh 13, Six1-Eya2 blk 11 and D2 PAM 0.
For Cc1ccc(SCC(=O)c2cc(C)c(O)c(C)c2)cc1 the results were PINK1 modulator 2.7%, Sfp inh 11%, D2 agonist -4.7, TRPV1 PAM -8, Six1-Eya2 blk -1 and D2 PAM -6.
CCOc1ccccc1N(CC(=O)N1CCCCCC1)S(=O)(=O)c1ccc(C)cc1 was read as PINK1 modulator -0.5%, Sfp inh 6%, D2 agonist -4.1, TRPV1 PAM -6, CtBP-E1A inh 0, Six1-Eya2 blk 11 and D2 PAM -3.
Screening COc1ccc(Cl)cc1NC(=O)NCCCl returned PINK1 modulator 1.1%, Sfp inh 2%, D2 agonist -2.5, TRPV1 PAM 22, CtBP-E1A inh 5, Six1-Eya2 blk 7 and D2 PAM -37.
Screening COC(=O)c1c(NC(=O)c2ccc(Br)s2)sc2c1CCC2 returned PINK1 modulator 3.7%[38.3 µM], Sfp inh -4%, D2 agonist -0.7, TRPV1 PAM 2, CtBP-E1A inh 14, Six1-Eya2 blk 15 and D2 PAM -9.
Cn1c2c(c(=O)n(C)c1=O)[C@@]1(C(=O)Nc3ccccc31)C(C#N)=C(N)O2 was read as PINK1 modulator 0.2%, Sfp inh -9%, D2 agonist 2.3, TRPV1 PAM -5, CtBP-E1A inh -5, Six1-Eya2 blk 5 and D2 PAM 14.

Compound activity: PubChem BioAssay, National Center for Advancing Translational Sciences (NCATS)
